Screening data from PubChem.
NPYLR7 ag: activates Aedes aegypti NPYLR7 receptor | activation, % at 10 µM | AID 1259423 | hit rate 0.15% among 270,000 | HEK293T NPYLR7/Galpha15, GCaMP6s calcium fluorescence; in the data active = activation above about 40%;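 also: 0% = vehicle and 100% = reference agonist at the receptor; some compounds past the cut are filed as inactive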
NPYLR7 ag max-min: recorded beside NPYLR7 ag, whose call it bears; activation, %; measured here: Max-Min RFU normalised activation; some inactives read as strong as hits;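 span of the calcium signal over five minutes; 0% = vehicle and 100% = native peptide agonist; compound fluorescence can raise it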
Active calls of the source: *; & = joins results of further samples.

SMILES | NPYLR7 ag | NPYLR7 ag max-min
COc1cccc(CN(CC2CC(c3ccccc3C)=NO2)C(=O)c2cccc(F)c2)c1 (centres undefined) | 23 | 26
CCS(=O)(=O)Oc1ccc(CN(CC(C)C)C(=O)COc2ccc(Cl)cc2)cc1 | -9 | -9
COc1cccc(-c2[nH]nc3c2C(c2ccc(O)c(C)c2)CC(=O)N3)c1 (centres undefined) | 6 | 5
COc1cc(C=NNC(=O)c2ccccc2O)cc(Br)c1OC | -5 | -10
CCC(C)N(CC(=O)N(CCc1ccc(OC)c(OC)c1)Cc1cccs1)S(=O)(=O)c1ccc(Br)cc1 (centres undefined) | 5 | -2
COc1cc(C2(C)NC(=O)N(CN(C)Cc3ccccc3)C2=O)cc(OC)c1OC (centres undefined) | 4 | 3
Cc1nc2ccc(Cl)cn2c(=O)c1NC(=O)C1CC1 | 0 | -1
CC(C)(C)OC(=O)N1CC(OCC(=O)N2CCCC2c2cccc3c2OCCO3)C1 (centres undefined) | 6 | 3
CCCCCCN1N=C(c2ccc(F)cc2)Cn2c1nc1c2c(=O)n(C)c(=O)n1C | 1 | 2
CCCC(C(=O)N1CCN(c2nc(C)cnc2C)CC1)n1cccc1 (centres undefined) | 6 | 5
CCOC(=O)c1c(NC(=O)Cc2ccc(OC)cc2)sc(C(=O)Nc2ccccc2)c1C | -11 | -19
Cc1cc(/C=N\N2CCN(C)CC2)c(C)n1CC(F)(F)F | 6 | 6
Cc1ccc(C2CC(c3ccc4c(c3)OCO4)Nc3nnnn32)cc1 (centres undefined) | 7 | 7
COc1cc2c(cc1OC)CN(C1CCCN(Cc3cccc4cnccc34)C1)CC2 (centres undefined) | 6&1 | 1&1
C=CCSc1nnc(NC(=O)c2ccccc2SC)s1 | 9 | 3
CC(C)CCNC(=O)Cc1csc(NC(=O)c2ccc[nH]c2=O)n1 | 0 | 2
CC1ON=C(c2ccc3c(c2)CCO3)N(Cc2ccccc2F)C1=O (centres undefined) | 6 | 4
CCC1CN(C(=O)c2ccc(-c3ccc(OC)nc3)nc2)CCN1C(C)C (centres undefined) | 5 | 5
COCCN(Cc1nc(C(=O)NCCc2ccc(OC)c(OC)c2)cs1)C(=O)Nc1cccc(Cl)c1 | 8 | 15
Cc1cc(Oc2cc(N3CCN(C(=O)COc4ccccc4)CC3)ncn2)ccc1Cl | -9 | -7
O=C(Cc1ccccc1)NC(NC1=NCCS1)(C(F)(F)F)C(F)(F)F | 8 | 11
COc1ccc(-c2[nH]nc3c2C(c2cccnc2)C(C#N)C(=N)O3)cc1 (centres undefined) | -7 | -13
O=C(COc1ccc(Cl)cc1)NC1CCN(c2ccccc2C(=O)NCc2ccco2)CC1 | -2 | 7
Cc1ccc(C2(C)NC(=O)NC2=O)c(C)c1 (centres undefined) | 5 | 4
O=C(O)c1nn(CCOc2cccc(Br)c2)c(=O)c2ccccc12 | -1 | -2

18 entries already listed, sorted by formula weight, smallest number first:
SMILES | NPYLR7 ag | NPYLR7 ag max-min
Cc1ccc(C2(C)NC(=O)NC2=O)c(C)c1 (centres undefined) | 5 | 4
C=CCSc1nnc(NC(=O)c2ccccc2SC)s1 | 9 | 3
Cc1ccc(C2CC(c3ccc4c(c3)OCO4)Nc3nnnn32)cc1 (centres undefined) | 7 | 7
CC1ON=C(c2ccc3c(c2)CCO3)N(Cc2ccccc2F)C1=O (centres undefined) | 6 | 4
COc1ccc(-c2[nH]nc3c2C(c2cccnc2)C(C#N)C(=N)O3)cc1 (centres undefined) | -7 | -13
CC(C)CCNC(=O)Cc1csc(NC(=O)c2ccc[nH]c2=O)n1 | 0 | 2
CCC1CN(C(=O)c2ccc(-c3ccc(OC)nc3)nc2)CCN1C(C)C (centres undefined) | 5 | 5
COc1cc(C=NNC(=O)c2ccccc2O)cc(Br)c1OC | -5 | -10
O=C(Cc1ccccc1)NC(NC1=NCCS1)(C(F)(F)F)C(F)(F)F | 8 | 11
O=C(O)c1nn(CCOc2cccc(Br)c2)c(=O)c2ccccc12 | -1 | -2
COc1cc(C2(C)NC(=O)N(CN(C)Cc3ccccc3)C2=O)cc(OC)c1OC (centres undefined) | 4 | 3
CC(C)(C)OC(=O)N1CC(OCC(=O)N2CCCC2c2cccc3c2OCCO3)C1 (centres undefined) | 6 | 3
Cc1cc(Oc2cc(N3CCN(C(=O)COc4ccccc4)CC3)ncn2)ccc1Cl | -9 | -7
CCS(=O)(=O)Oc1ccc(CN(CC(C)C)C(=O)COc2ccc(Cl)cc2)cc1 | -9 | -9
CCOC(=O)c1c(NC(=O)Cc2ccc(OC)cc2)sc(C(=O)Nc2ccccc2)c1C | -11 | -19
O=C(COc1ccc(Cl)cc1)NC1CCN(c2ccccc2C(=O)NCc2ccco2)CC1 | -2 | 7
COCCN(Cc1nc(C(=O)NCCc2ccc(OC)c(OC)c2)cs1)C(=O)Nc1cccc(Cl)c1 | 8 | 15
CCC(C)N(CC(=O)N(CCc1ccc(OC)c(OC)c1)Cc1cccs1)S(=O)(=O)c1ccc(Br)cc1 (centres undefined) | 5 | -2

Other results follow:
SMILES | NPYLR7 ag | NPYLR7 ag max-min
COc1cccc(-c2cc(C(=O)NC(C)C)n(-c3cccc(C)c3)n2)c1 | -3 | 4
CCc1ccc(C(Nc2c(C#N)c(=O)n(C)c(=O)n2C)c2cccc(F)c2)cc1 (centres undefined) | -1 | -2
CCOc1ccccc1-c1cnc(N)c(C)c1 | 16 | -3
O=S(=O)(c1cccc(Cl)c1Cl)N1CCSc2ccccc21 | 8 | 12
COc1ccc(OC)c(NC(=O)COC(=O)c2cnc3ccccc3n2)c1 | -8 | -9
CCN(CC)C(=O)CCC(=O)NCC1COc2ccccc2O1 (centres undefined) | 6 | 4
CC(C)(CNC(=O)c1ccccc1O)N1CCc2ccccc2C1 | 2 | -2
COc1cc2c(cc1NC(=O)CN(C)CC1OCCO1)oc1ccccc12 | -11 | -15
O=C(CN1CCN(C(=O)NCCC(=O)N2CCCC2)CC1)Nc1ccc(Cl)c(C(F)(F)F)c1 | 1 | 1
O=C(c1cccnc1-n1cccn1)N1CCCCCC1 | 12 | 6
CCn1c(SCc2ccc(C(=O)Nc3ccc4c(c3)OCO4)cc2)nnc1-c1ccc([N+](=O)[O-])cc1 | 0 | 5
CN1CCN(C(=O)C=Cc2cccs2)CC1 | -1 | -3
COc1nc2c(cc1C(=O)N1CCC(O)(c3ccc(C)cn3)CC1)CCC2 | 0 | -1
COc1cccc(-c2cc(C(=O)N3CCN(C(=O)NC4CCCCC4)CC3)c(C)n2-c2ccccc2)c1 | -11 | -13
COc1ccc(Cl)cc1C(=O)C1CCCN(Cc2cccn2-c2nccs2)C1 (centres undefined) | 2 | 3
Cc1ccc(CC(=O)OC(C)C(=O)NC(C)(C)C)cc1C (centres undefined) | 6 | 5
O=C(Cc1ccccc1)NNC(=O)c1ccco1 | -6 | -10
Cc1ccc(Cn2c(C)c(C(=O)NCc3ccc4c(c3)OCCO4)sc2=O)cc1 | -10 | -7
C#CCn1c(=NC(=O)c2ccccc2)sc2cc(S(C)(=O)=O)ccc21 | 4 | 1
CCOC(=O)C1(Cc2ccccc2)CCCN(Cc2cccc3c2OCO3)C1 (centres undefined) | 18 | 6
CC(C)Cc1nc(-c2cccc(CN3CCN(C(=O)c4cccnc4Cl)CC3)c2)no1 | -8 | -2
CCOc1c(Br)cc(C=CC(=O)c2ccc(OC)cc2)cc1OC | -1 | -2
Cc1ccc(-c2nn(-c3cccc(F)c3)cc2CN(C)C(C)c2nccs2)o1 (centres undefined) | 5 | 3
O=C(C1CCCC1)N(Cc1cccc(OCc2nc(CO)cs2)c1)C1CC1 | -2 | -1
Cc1cc(C)n(-c2ccc(F)cc2CN2CCC(CO)(Cc3ccccc3)CC2)n1 | 8&12 | 7&14

One compound at a time, as listed above.
Record of CC(C)(CNC(=O)c1ccccc1O)N1CCc2ccccc2C1 : NPYLR7 ag = 2; NPYLR7 ag max-min = -2
Record of CN1CCN(C(=O)C=Cc2cccs2)CC1 : NPYLR7 ag = -1; NPYLR7 ag max-min = -3

(more compounds)
SMILES | NPYLR7 ag | NPYLR7 ag max-min
COc1ccc(NC(=S)N2CCc3[nH]cnc3C2c2ccc(F)cc2)cc1 (centres undefined) | 0 | 39
Cc1nn2c(NCCOCCO)c3c(nc2c1-c1ccccc1)CCC3 | 2 | 5
CCOC(=O)c1cccnc1N1CCOC(c2ccc(F)cc2)C1 (centres undefined) | 4 | -5
Cc1noc(C)c1CCC(=O)N1CCCC(N2CCN(c3ccc(F)cc3)CC2)C1 (centres undefined) | 2 | 2
Cc1cccc2[nH]cc(CCNC(=O)N3CCOC(C)C3)c12 (centres undefined) | -26 | -28
Cc1nc(C)c(Cc2ccccc2Cl)c(N2CCN(C(=O)CC(C)(C)C)CC2)n1 | -3 | 9
Cc1ccc2c(C)c(C(=O)NCCN(C)S(C)(=O)=O)oc2c1 | -2 | 17
O=C1CCC([N+](=O)[O-])C(c2cccc(Oc3ccccc3)c2)N1 (centres undefined) | -7 | -12
CCOC(=O)c1c(NC(=O)C(F)(F)C(F)F)c(-c2ccc3c(c2)OCO3)cn1C | 16 | 5
Cc1ccc(S(=O)(=O)Nc2ccc(I)cc2)cc1C | 1 | 3
CCCC12C3C4C1C1C2C3C41C(=O)O (centres undefined) | 0 | -1
COC(=O)c1ccc(OCC(=O)Nc2cc(C)on2)c(OC)c1 | -1 | 3
COCC1(C)NC(=O)N(CC(=O)N(C)Cc2ccsc2)C1=O (centres undefined) | 1 | 0

Not all compounds are listed, so the mix of outcomes need not match the whole.
